Sfp PPTase inh = inhibitors of Bacillus subtilis Sfp phosphopantetheinyl transferase; AID 1490; actives 3.5% (n = 310,000); Potency, µM, inactives show max response, negative = inhibition, usual class: inhibitors; Biochemical Sfp PPTase activity, qHTS; active = well fitted inhibition curve with a large enough effect; inconclusive = small, poorly fitted or top-dose-only effect, or another doubt; inactive = no such curve, though single readings can be large or run the other way;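 note: the enzyme is Sfp with the accession as filed and its product quenches rhodamine fluorescence; potency is the fitted concentration of half-maximal effect; 0% = enzyme reaction without inhibitor and -100% = no enzyme wells; top concentration of the series not given in the record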
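Compounds were incubated with enzyme (final 15 nM) for 15 min at room temperature before substrate addition started the reaction. Fluorescence at 525 nm excitation, 598 nm emission was recorded immediately and after 30 minutes.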
D2 ag = agonists of human D2 dopamine receptor (beta-arrestin); P14416; DiscoveRx PathHunter D2 beta-arrestin, luminescence, 90 min; 100% = 57 uM dopamine signal; activation, % (concentration not given with the values); actives 0.084% (n = 360,000); in the data active = activation above about 40%; inconclusive = about 15% to 40%; inactive = below about 15%; note: compound concentration not given in the record; the text of the record calls up to 30% inactive
Target sequence (P14416 whole entry, looked up): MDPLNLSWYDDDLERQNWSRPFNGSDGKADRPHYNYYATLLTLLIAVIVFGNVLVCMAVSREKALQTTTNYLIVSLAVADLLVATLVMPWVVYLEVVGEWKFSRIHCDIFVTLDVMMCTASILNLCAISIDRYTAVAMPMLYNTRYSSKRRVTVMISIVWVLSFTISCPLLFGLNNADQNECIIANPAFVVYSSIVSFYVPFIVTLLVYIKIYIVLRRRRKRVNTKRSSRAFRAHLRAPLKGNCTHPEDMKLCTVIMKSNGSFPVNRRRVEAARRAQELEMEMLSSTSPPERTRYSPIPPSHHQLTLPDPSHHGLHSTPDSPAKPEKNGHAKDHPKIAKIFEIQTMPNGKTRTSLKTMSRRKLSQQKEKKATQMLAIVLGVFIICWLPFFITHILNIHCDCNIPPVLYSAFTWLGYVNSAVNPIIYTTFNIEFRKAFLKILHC
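Agonist mode: compounds alone added to overnight-plated D2 PathHunter cells for 90 min at 37 C, with 57 uM final dopamine (EC100) defining full response. Beta-arrestin recruitment detected by chemiluminescent reagent, read after 1 h at ambient temperature.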
PINK1 expr mod = modulators of PINK1 expression; PINK1 immunofluorescence, high-content cytometry, 24 h; actives 0.2% (n = 410,000); Potency, µM (top dose mostly 76.6 µM), for inactives: at the highest dose activation (PINK1 increase), most hits filed as activators; AID 624263; active = well fitted activation curve with a large enough effect; inconclusive = small, poorly fitted or top-dose-only effect; inactive = flat fitted curve, though single readings scatter; cell line not stated here;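 note: potency is the fitted concentration of half-maximal effect; % of control where 0% means no effect; nearly all actives have a fitted effect of over 65% in size; a mitochondrial uncoupler was the plate control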
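Compound titrations (5 concentrations, 24 h) on a stable cell line; DMSO and CCCP controls. Endpoint: fixed-cell PINK1 immunofluorescence with mitochondrial, cell and nuclear markers, scanned by microplate cytometer.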
gsp agonist = gsp mutant agonism. gsp mutant cells, cAMP HTRF, 30 min; control for the full effect not named in the record. Potency, µM (titrated, usually from 76.9 µM), without a hit: at the top dose activation (cAMP increase), actives largely listed as activators. actives 0.13% (n = 340,000). AID 624287; active = well fitted activation curve with a large enough effect; inconclusive = small, poorly fitted or top-dose-only effect, or another doubt; inactive = no such curve, though single readings can be large or run the other way; cell line not stated here;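 note: phosphodiesterase inhibitor Ro 20-1724 added with compounds to block cAMP breakdown; potency is the fitted concentration of half-maximal effect; nearly all actives have a fitted effect of over 60% in size; about a fifth of the inactives were tested at one dose only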
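Cells in DMEM/10% FBS with G418 were pretreated with compounds in DMSO plus […] (300 uM stock) for 30 min at 37C. cAMP was measured by HTRF (cAMP-d2 plus anti-cAMP antibody-K) after 30 min at room temperature.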
Menin-MLL FL inh = displaces fluorescein MLL peptide from human menin; 290,000 tested, under 10 active; AID 1766; Fluorescence polarization, fluorescein-MLL peptide displacement from menin; FP activity change, % at 61.4 µM; inconclusive = falling polarisation curve, or a change in total fluorescence; inactive = total fluorescence flat and polarisation flat or rising; no compound was filed as active; the % refers to the polarisation; negative = inhibition;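 note: % of control where 0% means no effect; inhibitors lower the polarisation; unlabelled MLL peptide was the positive control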
ClpP mod = qHTS Assay for Activators of ClpP. ATP-dependent Clp protease proteolytic subunit (Bacillus subtilis (strain 168)), P80244. purified B. subtilis ClpP, FRET peptide cleavage, 20 min. Potency, µM (series often up to 57.5 µM), for the others: at the highest dose activity change, negative = active. actives 1.9% (n = 340,000); active = well fitted falling curve with a large enough effect; inconclusive = small, poorly fitted or top-dose-only effect; inactive = no such curve, though single readings can be large or run the other way; note: potency is the fitted concentration of half-maximal effect; the source files actives as falling curves though it sought activators and does not explain the sign; nearly all actives have a fitted effect of over 65% in size; many hits overshoot -100%
Target sequence (P80244 whole entry, looked up): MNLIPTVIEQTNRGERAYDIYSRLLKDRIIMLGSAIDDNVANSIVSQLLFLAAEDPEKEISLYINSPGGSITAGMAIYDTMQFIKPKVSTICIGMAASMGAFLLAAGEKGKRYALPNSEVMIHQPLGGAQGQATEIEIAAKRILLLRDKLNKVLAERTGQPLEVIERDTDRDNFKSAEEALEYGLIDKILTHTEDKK
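Purified B. subtilis ClpP, 10 microg/mL final in Tris/HCl pH8 with KCl, BSA, glycerol and Tween-20, cleaved an Abz/nitrotyrosine-quenched decapeptide. Fluorescence (ex 320, em 430) was read at 0 and 20 min at room temperature. Delta was normalized to 5.8 microM ADEP and DMSO/no-enzyme controls.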
gsp antagonist = gsp mutant antagonism; actives 0.4% (n = 340,000); gsp-mutant cells, cAMP HTRF, 30 min; control for the full effect not named in the record; Potency, µM (doses to about 76.9 µM), without a hit: at the highest dose activity change, negative = inhibition, hits mostly inhibitors; active = falling curve of any shape with a large fitted effect; inconclusive = falling curve, mostly with a smaller effect; inactive = flat or rising curve; cell line not stated here;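 note: intracellular cAMP measured with PDE inhibitor Ro 20-1724 present during compound exposure; potency is the fitted concentration of half-maximal effect; % is set by controls: 0 for no effect and ±100 for the full control effect; nearly all actives have a fitted effect of over 65% in size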
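G418-selected cells were plated in DMEM/10% FBS for 16-24 h at 37C, then treated with compounds plus the PDE inhibitor […] (300 uM solution added) for 30 min at 37C. Intracellular cAMP was measured by HTRF after 30 min lysis at room temperature.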
Active calls of the source: *; ? = inconclusive; . = no result given; [ ] = another dose, or the depositor's remark.

SMILES	Sfp PPTase inh	D2 ag	PINK1 expr mod	gsp agonist	Menin-MLL FL inh	ClpP mod	gsp antagonist
O=C(Nc1cccc(C(=O)N2CCCCC2)c1)C1CCC1	.	-0.1	-0.5%	.	.	-0.5%	7%
O=S(=O)(NCCc1csc(-c2cccnc2)n1)c1ccc(F)cc1	11%	-3.1	-2.5%	14%	-1.3	?	-5%
COc1ccc(CNC(=O)CCc2nnc3ccc(NCCCN4CCCC4=O)nn23)cc1	11%	0.2	1.2%	?	1.8	-11%	13%
Cc1ccc(NC(=S)NCCc2ccccc2)nc1	-9%	-0.3	0.0%	23%	-6.5	.	10%
O=C(CSc1n[nH]c(-c2cccnc2)n1)Nc1cccc(Cl)c1	9%	1.8	0.4%	-31%[inhibitor]	1.7	.	-14%
COc1ccc(OC)c(NC(=O)CC(NC(C)=O)c2ccccc2)c1 (stereo not drawn)	11%	-4.6	0.0%	14%[15.4 µM]	1.5	.	2%
O=C(c1cc2ccccc2o1)N1CCOCC1	.	-3.3	-1.6%	-10%[15.4 µM]	.	-5.4%	7%
Cc1nc(NC(=S)NC(=O)c2cccs2)sc1C(=O)N(C)C	50µM*	-6.6	3.7%[38.3 µM]	-58%[inhibitor]	5.0	1.3%	-14%
CC(=O)Nc1ccc(NC(=O)COc2ccc([N+](=O)[O-])cc2)cc1	-1%	0.0	1.6%	-1%[15.4 µM]	-2.6	-0.2%	-4%
O=C(N/N=C/c1ccccc1O)C1CC(=O)N(c2ccc(Cl)cc2)C1 (stereo not drawn)	8%	2.6	1.3%	22%	-8.8	-12%	-2%
COC(=O)c1cc(-c2ccc(OC)cc2)nc2nc(SC)[nH]c(=O)c12	-12%	5.1	0.5%	-30%[15.4 µM]	2.2	.	-2%
O=C(Nc1ccccc1)Nc1nnc(Cc2ccc(F)cc2)s1	-17%	-2.4	1.9%	?	-6.0	-1.5%	5%
CCOC(=O)c1ccc(S(=O)(=O)Nc2cc(C(C)(C)C)no2)cc1	79µM*	-2.1	0.7%	1%	0.0	1.4%	?
CN(CCOc1ccccc1)CC(O)COCc1ccccc1F (stereo not drawn)	0%	0.7	0.5%	-66%[inhibitor][15.4 µM]	-2.5	.	8%
CN1CCN(C(=O)c2cnn3c(C(F)(F)F)cc(-c4ccc5c(c4)OCO5)nc23)CC1	5%	-0.9	5.4%[38.3 µM]	25%	4.1	-1.5%	0%
Cc1ccc(OCC(=O)OCC(=O)Nc2sccc2C(N)=O)cc1C	2%	-1.0	3.1%	-11%	3.3	?	1%
CNC(=O)CSc1nc(-c2ccccc2)c(-c2ccccc2)o1	10%	3.0	1.6%	13%	2.9	-17%	-10%
CSc1cccc(CN2CCC(CO)(Cc3cccc(C(F)(F)F)c3)CC2)c1	-15%	3.1	-1.4%	-1%[15.4 µM]	6.2	.	8%
CCOC(=O)N1CCC(NC(=O)C2CCCN(S(=O)(=O)c3cccnc3)C2)CC1 (stereo not drawn)	23%	-6.5	1.5%	-5%	0.3	-3.5%	7%
O=C(CN1C(=O)COCC1=O)N1CCOCC1	12%	-4.4	0.6%[38.3 µM]	27%	-2.7	-0.9%	-1%
COCCNC(=O)CN(C)S(=O)(=O)c1ccc(Br)cc1	10%	-7.1	2.4%	?	1.7	0.7%	5%
COc1cc(C)c2sc3ccccc3c(=O)c2c1NCCN(C)C	.	-8.3	-1.2%	24%	.	1.2%	.
CCn1cc(C(=O)NC(=S)Nc2sc3c(c2C(=O)OC)CCCCCC3)cn1	35µM*	7.8	25%	4%	0.3	1.6%	3%
O=C(NCc1ccncc1)C(=O)Nc1nc(C23CC4CC(CC(C4)C2)C3)cs1	-7%	-1.2	-0.1%	-6%	4.9	1.8%	45µM*
CCc1nc2ccc(C(=O)NCCOc3ccc(OC)cc3)cn2c1N(C)Cc1cccs1	.	8.8	2.1%	.	.	-1.2%	.
CCOC(=O)CCc1c(C)c2ccc3c(c2oc1=O)CN(CCCO)CO3	-3%	-3.9	0.0%	?	7.3	4.3%	-4%
N#CC(=Cc1ccc(O)cc1)C(N)=C(C#N)C#N	.	-6.1	-1.0%	.	.	2.4%	14%
Cc1c(NC(=O)CSc2ncn[nH]2)c(=O)n(-c2ccccc2)n1C	-13%	-0.5	-0.7%	3%	3.5	-0.3%	3%
Cc1ccccc1NC(=O)c1sc(Cl)nc1C	18%	-2.6	-0.5%	3%[15.4 µM]	5.5	0.4%	3%
COCC1=C(C(=O)OC)C(c2ccco2)n2ncnc2N1 (stereo not drawn)	20%	-6.2	1.4%	-14%[15.4 µM]	-1.3	-4.8%	6%
CC(OC(=O)c1cccs1)C(=O)NCCc1ccccc1 (stereo not drawn)	18%	-3.1	1.1%	7%[15.4 µM]	2.9	.	12%
CC1CCN(C(=O)CCc2nc3cc(S(=O)(=O)N(C)C)ccc3n2C)CC1	17%	-0.9	-3.8%[38.3 µM]	-7%	2.6	1.8%	-3%
CC(C)NC(=O)C1(C)CCN1Cc1cccc(Cl)c1 (stereo not drawn)	.	-4.8	0.2%	.	.	-1.5%	.
CCc1ccccc1NC(=O)CCCN1C(=O)c2cccnc2C1=O	7%	-0.4	0.2%	17%[15.4 µM]	2.2	0.0%	10%
CCCCn1c(N)c(N(CCOC)C(=O)c2cccc(S(=O)(=O)N(C)c3ccccc3)c2)c(=O)[nH]c1=O	.	-1.8	0.7%	-7%	.	3.3%	-1%
CCOc1ccc2c(c1)nc(C)n2C	17%	-4.5	0.5%	-40%[inhibitor]	1.3	.	7%
OC1(c2cccc(C(F)(F)F)c2)CCN(Cc2nnnn2Cc2ccccc2)CC1	0%	10	-0.2%	17%	1.1	.	-2%
COc1cc(C(=O)OCCN2CCOCC2)ccc1O	10%	-1.0	-0.2%	0%	1.2	-4.9%	0%
O=C(CCNC(=O)c1ccc(Br)cc1)NNC(=O)c1ccccc1O	.	-4.8	-0.2%	1%[15.4 µM]	.	-10%	0%
O=C(NN1CCOCC1)c1cc(-c2ccc(Br)cc2)nc2ccccc12	1%	-6.0	?	-25%	4.6	1.1%	11%
COCC1CCN(Cc2cn[nH]c2-c2ccc(OC)c(F)c2)C1 (stereo not drawn)	-5%	-5.2	1.2%	5%	0.5	-1.0%	10%
CN(C)CCCNc1nc2cc(-c3ccsc3)sc2c(=O)n1C	.	1.3	-0.7%	.	.	-17%	.
CCC(=O)Nc1ccc(Br)cn1	21%	-3.8	0.6%	3%	-8.9	.	-23%
Cc1ccccc1OCCCC(=O)Nc1ccccc1C(F)(F)F	6%	-2.5	-0.3%	-30%	-0.6	-1.9%	1%
Cc1cc(C)cc(NC(=O)C2C3C=CC4(O3)C2C(=O)N(CCCN(C)C)C4C(=O)NC2CCCC(C)C2C)c1 (stereo not drawn)	15%	-5.2	0.3%	-3%[15.4 µM]	2.1	0.9%	16%
O=C(CN(Cc1ccc(Br)cc1)S(=O)(=O)c1ccccc1)NCc1cccnc1	1%	-0.5	-2.7%	-7%	-0.9	-26%	-1%
NC(=O)c1ccc(NC(=O)CCCN2C(=O)NC3(CCCC3)C2=O)cc1	.	-12	4.2%	-34%[inhibitor]	.	-2.0%	13%
CCC(CO)Oc1cc(NCc2ccc(C(=O)O)cc2)c2ncn(C(C)C)c2c1 (stereo not drawn)	.	-2.4	1.1%	.	.	-4.8%	-10%
CCOC(=O)c1c(S(=O)(=O)Nc2ccccn2)c(C)n(C)c1C	15%	1.1	-0.1%	25%	-8.2	0.4%	20%
COc1ccc(-c2noc(CN(C(=O)c3c(-c4ccccc4Cl)noc3C)C(C)C)n2)cc1	20%	4.5	4.2%	-1%	-0.4	-2.0%	-23%

An excerpt of these results, comma-delimited:
Molecule,Sfp PPTase inh,D2 ag,PINK1 expr mod,gsp agonist,Menin-MLL FL inh,ClpP mod,gsp antagonist
O=C(CN(Cc1ccc(Br)cc1)S(=O)(=O)c1ccccc1)NCc1cccnc1,1%,-0.5,-2.7%,-7%,-0.9,-26%,-1%
CN(C)CCCNc1nc2cc(-c3ccsc3)sc2c(=O)n1C,.,1.3,-0.7%,.,.,-17%,.

Additional compounds follow.
SMILES	Sfp PPTase inh	D2 ag	PINK1 expr mod	gsp agonist	Menin-MLL FL inh	ClpP mod	gsp antagonist
Nc1nnn(CC(=O)N/N=C/C=C/c2ccccc2)n1	5%	-7.3	-1.3%	6%[15.4 µM]	2.1	.	-10%
N#Cc1ccc(S(=O)(=O)N2CCN(C(=O)C3CC(=O)N(c4ccc5c(c4)OCCO5)C3)CC2)cc1 (stereo not drawn)	.	-0.7	-0.5%	-1%	.	0.5%	6%
CC(C)(O)C#Cc1ccc(CNC[C@H]2O[C@@H](n3cnc4c(N)ncnc43)[C@H](O)[C@@H]2O)s1	.	-1.6	-0.3%	.	.	0.1%	6%
O=C(c1cc(=O)[nH]c2ccccc12)N1CCN(c2cccc(C(F)(F)F)c2)CC1	-5%	0.8	0.3%	3%[15.4 µM]	-0.6	.	-6%
COc1ccc(C2CC(=O)c3cnc(NC(=O)c4cc(OC)cc(OC)c4)nc3C2)cc1 (stereo not drawn)	-8%	-1.8	-1.3%	-46%[inhibitor]	1.8	-1.7%	-8%
Cc1cnc(C(=O)OCC(=O)Nc2cccc(C)c2C)cn1	.	0.8	0.8%	0%[15.4 µM]	.	-1.8%	6%
O=C(COc1ccccc1)NCc1ccco1	.	-1.6	1.0%	?	.	.	5%
O=C(CCC1COc2ccccc2O1)NC1CCCCC1 (stereo not drawn)	-5%	1.1	4.0%[38.3 µM]	1%	0.2	0.6%	4%
COc1cc(OC)c(C(=S)N2CCCC2)cc1OC	20µM*	-1.8	5.6%	-35%[inhibitor]	-3.0	1.8%	8%
Cc1nc(S(=O)(=O)c2cccc(Cl)c2)nc2c1CCC2	19%	-3.2	3.1%	-7%	0.0	1.4%	-17%
CC1CN(C(=O)CCC(=O)NCCCc2ccccc2)c2ccccc2O1 (stereo not drawn)	9%	-0.6	1.8%	-20%	0.1	1.0%	4%
Cc1cc(C)c2nc(-c3ccncc3)cc(C(=O)N3CCN(Cc4ccccc4Cl)CC3)c2c1	-19%	2.3	-0.9%	-68%[inhibitor]	8.3	-8.3%	-14%
O=C(OCC(=O)N1CCCC1)c1cc(Cl)ccc1Cl	-4%	-1.0	1.0%	-6%[15.4 µM]	-11	.	6%

Assay outcomes from PubChem BioAssay.
